# Vaccinia Venus = inhibitors of vaccinia virus (Venus reporter); Vaccinia virus Venus reporter expression, fluorescence; Potency, µM (series often up to 36.5 µM), for inactives: at the highest dose activity change, negative = inhibition, actives largely listed as inhibitors; actives 0.46% (n = 330,000); AID 720580; active means well fitted inhibition curve with a large enough effect; inconclusive means small, poorly fitted or top-dose-only effect; inactive means no such curve, though single readings can be large or run the other way; tested in A549 cells; also: nearly all actives have a fitted effect of over 30% in size; inactives centre near -10
# VACV mCherry inh = vaccinia inhibition (mCherry reporter); Vaccinia virus mCherry reporter infection, fluorescence; about a quarter of the inactives have no number; Potency, µM (series often up to 36.5 µM), without a hit: at the top dose activity change, negative = inhibition, actives largely listed as inhibitors; actives 0.63% (n = 310,000); active = well fitted inhibition curve with a large enough effect; inconclusive = small, poorly fitted or top-dose-only effect; inactive = no such curve, though single readings can be large or run the other way; tested in A549 cells; also: nearly all actives have a fitted effect of over 35% in size; inactives centre near -10
# Active calls of the source: *; i = inactive; ? = inconclusive; · = not tested or not shown; & = joins results of further samples; [ ] = remark or other dose. % is scaled to controls: 0 for no effect and ±100 for the full control effect; potency is read from the fitted curve at half-maximal effect.
SMILES,Vaccinia Venus,VACV mCherry inh
COC(=O)c1ccc(C2NCCc3cc(OC)c(OC)cc32)cc1 (configuration not stated),-11%,-11%
COC(=O)c1cccc(NC(=O)NC(=O)c2ccc(Cl)cc2)c1,-5%,i
Cn1c(NCc2ccccc2F)nc2cc(-c3cccc(Cl)c3)sc2c1=O,-21%,4%
NC(=S)Nc1cccc(-c2n[nH]c(=S)o2)c1,-2%,-15%
O=C(Nc1cccc(S(=O)(=O)NC2=NCCC2)c1)C1CCCCC1,-4%,-4%
CC1(C(=O)NS(=O)(=O)C2CC2)CCN(C(=O)c2cc3ccccc3s2)C1 (configuration not stated),14%,12%
CCN(CC)CCCOc1ccc(C)cc1Br,-20%,-24%
Cc1ccc(NC(=O)OCc2ccccc2S(C)=O)cc1 (configuration not stated),1%,6%
COc1cccc(NC(=O)CSc2nnc(-c3ccoc3C)n2C)c1,-10%,i
CC1(C2(O)CCCCC2)NCCc2ccccc21 (configuration not stated),2%,i
O=C(Nc1nnc([C@@H]2C[C@H](O)[C@@H](CO)O2)s1)Nc1ccc(F)cc1F,-11%,i
CC(C)C[C@H](NC(=O)N1CC(=O)Nc2ccccc21)C(=O)N[C@H](Cc1c[nH]c2ccccc12)C(=O)O,-3%,-5%
Cc1cc(C)c(Cn2c3ccccc3c3cnn(CC(=O)NCCCc4ccccc4)c(=O)c32)c(C)c1,?,-26%
S=C(NCCC1=CCCCC1)Nc1ccccc1,?,-7%[1.46 µM]
N#CCSCC(=O)Nc1ccc(F)cc1,-10%,-7%
CC1(C)C([N+](=O)[O-])C(c2ccccc2O)NC(c2ccccc2O)C1[N+](=O)[O-] (configuration not stated),-13%,-14%
Oc1ccc(C[C@H]2CNC(=S)N2C[C@H]2CCCN2C[C@H](Cc2ccccc2)N2C[C@H](Cc3ccccc3)N(CC3CCCCC3)C2=S)cc1,-22%,-5%
Cc1ccc(Nc2c(-c3ccsc3)nc3c(C)cccn23)cc1,-18%&-20%,-13%&-19%
O=C(NC1CCCCC1)Oc1cc2oc(=O)sc2cc1Cl,-6%,-21%
COCCNC(=O)c1ccc(CN2CCOCC2)cc1,-8%,·
COc1ccc(CCNC(=O)CSc2nnc(Cc3cccn3C)n2C)cc1OC,-6%,-3%
COc1ccc(OC)c(S(=O)(=O)N2CCN(c3ccccc3OC)CC2)c1,-9%,-21%
Cc1cc2c(OCC(O)CNCc3ccco3)cccc2[nH]1 (configuration not stated),-27%,-30%
Cc1cc(NC(=O)c2cnn3cccnc23)nn1CC(=O)Nc1cccnc1,-6%,-12%
COc1cc(C(=O)O/N=C2/C=C(C)C(=O)C=C2C)cc(OC)c1OC,1%,-16%
CCc1noc(C)c1C(=O)Nc1nc(-c2ccc(OC)c(OC)c2)cs1,-18%,-25%
Cc1cccc(NC(=O)CSc2nnc(-c3cccs3)o2)c1,-5%,-13%
COc1ccccc1OCC(=O)Nc1c(C(=O)c2ccc(C)cc2)oc2ccccc12,-24%,-28%
Cc1ccc([C@H]2C[C@H](n3cc(-c4ccc(F)cc4)nn3)[C@@H](O)CN2CC2CCCCC2)cc1,-18%,-10%
CN=C(C)/C(C(=O)OC)=C(/O)c1ccc(Cl)cc1Cl,-11%[7.34 µM],-3%[7.34 µM]
N#C/C(=C/c1ccc(CNC(=O)C(=O)Nc2cc(Cl)cc(Cl)c2)o1)C(=O)NCc1cccnc1,-10%,i
CCN(CCCNC(=O)CSc1cc(=O)n(C)c2cc(Cl)ccc12)c1cccc(C)c1,-17%,-18%
CCOC(=O)C1(Cc2ccc(Cl)cc2)CCN(Cc2nccn2CC)CC1,-11%,-16%
Cc1ccc(S(=O)(=O)N2Cc3ccccc3-n3nncc3C2)cc1,-22%,-22%
COCCNC(=O)C(=O)NCC1OCCN1C(=O)c1ccc(Cl)cc1 (configuration not stated),13%,-16%
COc1cc(NC(=O)C2CCN(S(=O)(=O)c3ccc4c(c3)oc(=O)n4C)CC2)cc(OC)c1,-7%,5%
O=C(NCCc1nc2ccccc2[nH]1)/C(=C/c1ccc2c(c1)OCO2)NC(=O)c1ccccc1,-1%,i
O=C(COC(=O)Cc1cccs1)Nc1ccc(F)c(F)c1F,-17%,i
O=C(Nc1ccc(Br)cc1)c1cc(S(=O)(=O)Nc2ccccn2)ccc1Cl,-4%,-23%
CCOc1ccc(/C=C(\C#N)c2nc(-c3cc4ccccc4oc3=O)cs2)c(OCC)c1,-2%,-7%
COc1cc(NS(=O)(=O)c2ccc(NC(=O)/C=C/c3ccc([N+](=O)[O-])cc3)cc2)ncn1,-17%,i
COc1cccc(C(=O)c2c[nH]c(C(=O)NCCCN(C)C)c2)c1,-9%,?
Cc1cccc(-n2ncc3c(NCCCn4ccnc4)ncnc32)c1,-4%,17%
COc1ccc(Cl)cc1Nc1cc(C)nc2ncnn12,-3%,-7%
CCOc1ccc(S(=O)(=O)NCc2ccccn2)cc1NC(=O)c1ccccc1F,-23%,?
NC(=O)c1nsc(C(=O)N(c2ccc(Cl)cc2)C(C(=O)NCC2CCCO2)c2cccs2)c1N (configuration not stated),-6%,i
O=S(=O)(NC1=NCCC1)c1cccs1,-14%,i
O=C(NC(=S)Nc1ccc(N2CCCC2)cc1)c1ccc(F)cc1,-4%,-16%
Cc1c2ccncc2c(C)c2c1[nH]c1ccccc12,10µM*,11µM*
CCN(c1ccccc1)P(=O)(Nc1ccccc1)Nc1ccccc1,-1%,?
O=C(C1=C[C@@H](c2ccc(Br)cc2)C[C@@H](OCc2ccc(CO)cc2)O1)N1CCN(Cc2ccc3c(c2)OCO3)CC1,-26%,-14%
C[C@]12CC[C@H](O)CC1=CCC1C2CC[C@@]2(C)C1CC[C@@H]2NC(=O)CCC(=O)O (some centres not stated),1%,-6%
Nc1c(Br)cc(C=O)cc1Br,-6%,-8%
CCc1ccccc1NC(=O)CC1NCCNC1=O (configuration not stated),-10%,-11%
COc1cccc(NC(=O)CN2C=NS(=O)(=O)c3ccccc32)c1,-10%,-16%
Cc1cc([N+](=O)[O-])nn1CC(=O)Nc1ccc(Cl)cn1,-3%,-26%
C[C@@H](N)CCCP(=O)(O)O,-8%,-15%
CCOC(=O)C1=C(c2ccccc2)NC(SCC(=O)Nc2ccc(C)cc2)=C(C#N)C1c1ccco1 (configuration not stated),?,-16%
COc1ccc(N(Cc2cc3ccccc3[nH]c2=O)C(=O)c2cccc(Cl)c2)cc1,-17%,-19%
Cc1ccc(S(=O)(=O)NCCNS(=O)(=O)c2ccccc2Br)cc1,-5%,i

# The final three entries of the section above are carried over, then new ones follow.
SMILES,Vaccinia Venus,VACV mCherry inh
CCOC(=O)C1=C(c2ccccc2)NC(SCC(=O)Nc2ccc(C)cc2)=C(C#N)C1c1ccco1 (configuration not stated),?,-16%
COc1ccc(N(Cc2cc3ccccc3[nH]c2=O)C(=O)c2cccc(Cl)c2)cc1,-17%,-19%
Cc1ccc(S(=O)(=O)NCCNS(=O)(=O)c2ccccc2Br)cc1,-5%,i
O=C(CCCc1ccccc1)Nc1ccccn1,-8%,-15%
CCc1nc2c(OCc3ccc(C#N)cc3)cccn2c1N(C)C(=O)c1cccs1,-2%,14%
Cc1cccc(CN2C(=O)/C(=C\c3ccc(C(=O)NCCN4CCOCC4)cc3)Sc3ccccc32)c1,-26%,-4%
COC(=O)c1sccc1NC(=O)C1C2C=CC(C2)C1C(=O)O (configuration not stated),-3%,-12%
CCCCCCN1C[C@@H](n2cc(-c3ccc(F)cc3)nn2)[C@H](O)C[C@@H]1c1ccc(Cl)cc1,?,?
COC(=O)[C@]1(Cc2ccccc2)N[C@H](c2ccc(-c3cccc(Cl)c3)cc2)[C@@H]2C(=O)N(C)C(=O)[C@@H]21,-25%,0%
CC1CCCCC1NC(=O)C(Cc1ccccc1)NS(=O)(=O)c1cccs1 (configuration not stated),-7%,i
COc1ccc(NC(=O)c2cc(Cl)ccc2NC(=O)c2ccco2)c(OC)c1,-10%,i
O=C(C1CCCN(S(=O)(=O)c2ccc([N+](=O)[O-])cc2)C1)N1CCCCC1 (configuration not stated),-29%,-6%
CCS(=O)(=O)n1nc(-c2ccccc2)nc1N,-1%,-19%
CCn1cc2nc(SCc3ccc(F)cc3)n(CCc3ccccc3)c(=O)c2n1,-16%,-26%
CC(C)C[C@H](NC(=O)N1CC(=O)Nc2ccccc21)C(=O)N[C@H](C(=O)O)c1ccccc1,-2%,-2%
Cc1ccc(NC(=O)CSc2nnc(CSc3nc(C)cc(C)n3)n2Cc2ccco2)c(C)c1,-12%,i
Cc1ccc(CCNC(=O)CCS(=O)(=O)c2ccc(Br)cc2)cc1,-18%,i
c1ccc2c(C[C@@H]3CNCCN3CCCCC3CCCCC3)cccc2c1,-21%,?
Oc1ccc(/C=N/Nc2ccc(Cl)nn2)c(O)c1O,-9%,-1%
COc1ccccc1OCC(=O)/C=C1/N(C)c2ccccc2C1(C)C,-14%,-16%
Cc1ccc(/C=C2/NC(=O)N(Cc3ccccc3)C2=O)s1,2%,-28%
COc1ccc2oc(=O)cc(CN3CCN(c4ccc(F)cc4)CC3)c2c1,-11%,-17%
CCOC(=O)c1c(C)[nH]c(CCC(=O)NCCCN2CCN(c3cc(Cl)ccc3C)CC2)c1C,?,?
CC(Cc1ccccc1)=NNS(=O)(=O)c1ccc([N+](=O)[O-])cc1,-9%,-2%
CCOC(=O)c1c(-c2ccccc2)oc2ccc(N(C(C)=O)S(=O)(=O)c3ccccc3)cc12,-12%,-19%
O=C(COC(=O)c1ccccc1NC(=O)c1ccco1)NCCC1=CCCCC1,-20%,·
CC(=O)OCc1c(C(F)(F)F)nn(C)c1SCc1ccc(Cl)cc1,-12%,·
COC(=O)c1ccc(CNC(=O)COC(=O)CCC(=O)c2ccc(F)cc2)cc1,1%,-17%
CCN1CCN(Cc2c(C(=O)N/N=C(\C)c3ccc(Cl)cc3)nnn2-c2nonc2N)CC1,-3%,-21%
CCOC(=O)c1ccc(N2CCN(c3cc(Cl)ccc3C)CC2)c(NC(=O)Nc2cccc(OC)c2)c1,-3%,-8%
CCOC(=O)C1CCCN(c2nc3c(S(=O)(=O)c4ccc(CC)cc4)nnn3c3ccc(Cl)cc23)C1 (configuration not stated),1%,-8%
CN(C)S(=O)(=O)c1cccc(CSCc2cccc(S(=O)(=O)N(C)C)c2)c1,-8%,-4%
C=C(C)CSc1nnc2[nH]c(=O)cc(N)n12,-13%,-21%[1.46 µM]
COc1ccc(/C=N/Nc2nccnc2Cl)c(OC)c1,-1%,-5%
COC(=O)[C@@]12C[C@@H](CC(=O)NCCc3ccccc3OC)C(=O)N(Cc3ccccc3)C1=CCC(C)(C)C2,?,?
CCCNC(=O)NC(=O)CSc1nnc(C)n1N,-22%,·
CCOc1ccccc1CNC(=O)c1cnc2sc(N3CCOCC3)nn2c1=O,-17%,-17%
CS(=O)(=O)N1Cc2ccccc2-n2nncc2C1,1%,-15%
COc1cccc(-c2cc3nc(Nc4ccc(OC)c(OC)c4)n(C)c(=O)c3s2)c1,-12%,-21%

# Part of the list above in order of number of heavy atoms, smallest number first.
SMILES,Vaccinia Venus,VACV mCherry inh
C=C(C)CSc1nnc2[nH]c(=O)cc(N)n12,-13%,-21%[1.46 µM]
CCCNC(=O)NC(=O)CSc1nnc(C)n1N,-22%,·
COc1ccc(/C=N/Nc2nccnc2Cl)c(OC)c1,-1%,-5%
CCOc1ccccc1CNC(=O)c1cnc2sc(N3CCOCC3)nn2c1=O,-17%,-17%
COc1cccc(-c2cc3nc(Nc4ccc(OC)c(OC)c4)n(C)c(=O)c3s2)c1,-12%,-21%
CCOC(=O)C1CCCN(c2nc3c(S(=O)(=O)c4ccc(CC)cc4)nnn3c3ccc(Cl)cc23)C1 (configuration not stated),1%,-8%
COC(=O)[C@@]12C[C@@H](CC(=O)NCCc3ccccc3OC)C(=O)N(Cc3ccccc3)C1=CCC(C)(C)C2,?,?

# 2 records drawn at random from the list so far:
SMILES,Vaccinia Venus,VACV mCherry inh
CCc1ccccc1NC(=O)CC1NCCNC1=O (configuration not stated),-10%,-11%
COc1ccc(N(Cc2cc3ccccc3[nH]c2=O)C(=O)c2cccc(Cl)c2)cc1,-17%,-19%

# (more compounds)
SMILES,Vaccinia Venus,VACV mCherry inh
COc1ccc(-n2nc3ccc(NC(=O)COc4ccc(C)c(C)c4)cc3n2)cc1,-3%,8%
CCCCC(=O)NC(NC(=S)N1CCCCCC1)C(Cl)(Cl)Cl (configuration not stated),-17%,i
CCCN(CCC)C(=O)C(c1ccccc1)C1(O)CCCCC1 (configuration not stated),-3%,-20%
COc1cc(Nc2nc(SCC(=O)c3ccc(Cl)c(Cl)c3)nc3ccccc23)cc(OC)c1,-18%,-21%
CC1(C)Cc2c(sc3[nH]c(=S)n(Cc4ccco4)c(=O)c23)CO1,-26%,-2%
O=Cc1c(-c2ccccc2)nc2ccccn12,1%,11%
CN1C(=O)C(O)(CC(=O)c2ccccn2)c2cc(Br)ccc21 (configuration not stated),-4%,·
CCc1c(C)c(C#N)c2[nH]c3ccccc3n2c1=S,6%,-8%
O=C1NC[C@H](CCCCN2C[C@H](Cc3ccccc3)N(CC3CCCCC3)C(=O)C2=O)N(CCc2ccc(O)cc2)C1=O,-4%,-1%
O=C(NC1CCCC1)C(c1ccco1)N1CCN(c2c(Cl)cncc2Cl)CC1 (configuration not stated),?,?

# Source: PubChem BioAssay (National Center for Advancing Translational Sciences (NCATS))
